# HSV replic up = enhancers of HSV replication in host cells, fold increase, host cell viability; HSV replication augmentation in cells; maximum fold increase; 0.005% of 220,000 active; AID 1956, 2009;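 active = peak rise of 1.5-fold or more in the series; tested in PC3 cells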;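 note: first round at 10 µM; read as green reporter fluorescence; hits show the peak of a series up to 25 µM; 1 = signal of infected wells without compound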
# RGS16-Gao HTS = modulators of RGS16 binding to Galphao, primary screen, biochemical, human proteins, multiplexed bead flow cytometry. Regulator of G-protein signaling 16 (Homo sapiens) + Guanine nucleotide-binding protein …. bead-based flow cytometry RGS16-Galphao binding, fluorescence; actives lie on both sides. binding response (% of control), % at 10 µM. 0.38% of 220,000 active;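 active = below 25% or above 175%, edge rows of some plates excepted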;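 note: Galphao activated by GDP with aluminum fluoride before binding; 100% = wells without compound and 0% = beads without RGS; some results beyond the cut were filed as inactive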
# Target sequence (O15492 whole entry, looked up): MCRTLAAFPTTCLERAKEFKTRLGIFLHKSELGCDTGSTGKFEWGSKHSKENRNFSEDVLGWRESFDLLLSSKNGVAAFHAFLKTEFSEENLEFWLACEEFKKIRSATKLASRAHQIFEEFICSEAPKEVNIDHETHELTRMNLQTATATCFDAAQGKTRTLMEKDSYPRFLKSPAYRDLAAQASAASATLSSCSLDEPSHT
# Target sequence (P09471 whole entry, looked up): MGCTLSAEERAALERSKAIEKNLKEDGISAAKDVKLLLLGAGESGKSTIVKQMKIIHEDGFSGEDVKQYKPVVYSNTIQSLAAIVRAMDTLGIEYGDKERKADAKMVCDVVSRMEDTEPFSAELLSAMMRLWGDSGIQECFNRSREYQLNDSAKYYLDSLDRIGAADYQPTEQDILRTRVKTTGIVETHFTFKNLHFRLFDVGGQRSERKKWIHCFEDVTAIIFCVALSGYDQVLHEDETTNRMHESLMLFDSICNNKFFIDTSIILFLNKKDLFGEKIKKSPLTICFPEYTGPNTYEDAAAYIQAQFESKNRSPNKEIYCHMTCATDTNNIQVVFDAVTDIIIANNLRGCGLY
# Insulin prom inh = inhibitors of insulin promoter-driven GFP, primary screen, imaging, TRM-6 cells (human fetal islet line), eGFP reporter, cell count; reporter expression induced with tamoxifen; inhibition, % at 2 µM; 0.9% of 130,000 active;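 active = inhibition above the mean plus 3 SD, with well images judged a real hit on visual review, cut at about 60% in these data, passing the limit was not always enough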
# GALR2 ag = GALR2 receptor agonists, primary screen, cell-based. Galanin receptor type 2 (Homo sapiens), O43603. GALR2-expressing cells, agonist activation read-out. activation, %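 (tested at 5 µM)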. 0.48% of 140,000 active;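 active = above mean plus 3 SD of all compounds, about 5% in these data, not always enough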;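 note: 0% = vehicle buffer wells and 100% = reference agonist at full effect; tested in CHO reporter cells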
# Target sequence (O43603 whole entry, looked up): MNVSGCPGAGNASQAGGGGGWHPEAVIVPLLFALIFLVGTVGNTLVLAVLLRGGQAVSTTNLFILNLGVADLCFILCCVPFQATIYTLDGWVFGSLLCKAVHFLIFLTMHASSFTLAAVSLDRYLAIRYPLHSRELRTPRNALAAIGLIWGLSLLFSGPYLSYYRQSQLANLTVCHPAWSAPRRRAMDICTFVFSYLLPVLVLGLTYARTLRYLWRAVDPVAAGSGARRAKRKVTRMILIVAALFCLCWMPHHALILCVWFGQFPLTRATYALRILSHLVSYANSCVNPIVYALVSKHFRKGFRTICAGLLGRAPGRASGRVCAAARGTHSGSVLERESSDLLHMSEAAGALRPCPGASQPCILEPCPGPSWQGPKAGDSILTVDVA
# PKD1 inh = inhibitors of human PKD1 kinase, biochemical, fluorescence polarization; AID 797, 2007; inhibition, %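 (about 10 µM by stock and volumes)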; PKD1 kinase fluorescence polarization assay; 0.056% of 200,000 active; Serine/threonine-protein kinase D1 (Homo sapiens), Q15139;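 active = inhibition of 50% or more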;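 note: controls were vehicle for no effect and a reference inhibitor for full effect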
# Insulin prom inh cell count = also measured in Insulin prom inh; calls as there; normalized cell count, %; measured here: cell count, toxicity; reference of the scale not given here;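 cells exposed to compound for 48 h; stained nuclei by imaging scaled within each plate; lower means fewer cells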
# HSV replic up primary fold = second read-out of HSV replic up, no call of its own (marks repeat the call); fold increase; compound at 10 µM; measured here: primary screen fold increase 10 uM; tested in PC3 cells;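 GFP signal in the first replicate; 1 = infected wells without compound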
# The depositor's hits bear a star; i = inactive; . = no result given.
# Values run as follows: HSV replic up, HSV replic up primary fold, RGS16-Gao HTS, Insulin prom inh, Insulin prom inh cell count, GALR2 ag, PKD1 inh
> O=C(COc1ccccc1)NNC(=S)NC(=O)c1ccc(Cl)cc1Cl
    i, 0.77, 99, 62, 120, -0.6, -12
> COc1cccc(C(=O)Nc2ccc(C)cc2)c1
    i, 0.89, 107, -23, 83, -1.9, -3
> O=c1[nH][nH]c(C(F)(F)F)c1C=NCc1cccs1
    i, 1, 96, ., ., ., 3
> CC1=NNC(=O)C1CC(=O)N/N=C(/C)c1cccc([N+](=O)[O-])c1 (centres undefined)
    i, 0.92, 102, 7, 104, ., 0
> CCc1ccc(NC(=O)C(=O)NCC2CCCO2)cc1 (centres undefined)
    i, 0.83, 103, -40, 91, ., -4
> FC(F)(F)c1ccc(N2CCOCC2)c(Nc2nc3ccccc3n3cnnc23)c1
    i, 0.51, 102, ., ., -1.5, -9
> CCC(C)c1ccccc1NC(=O)C(C)N(C)Cc1cccc(OC)c1 (centres undefined)
    i, 1, 103, ., ., ., 2
> COc1ccc(C2C(C#N)=C(N)OC3=C2C(=O)CC(C)(C)C3)c(OC)c1OC (centres undefined)
    i, 0.92, 109, -6, 118, -1.5, 2
> CCOC(=O)C1(CCOc2ccccc2)CCN(Cc2ccc(NC(C)=O)cc2)CC1
    i, 1.1, 108, ., ., ., 4
> COc1ccc(C(c2nnnn2CCc2ccccc2)N2CCN(C3CCCC3)CC2)cc1 (centres undefined)
    i, 0.84, 88, ., ., -1.8, -7
> O=Cc1ccc(N2CCCCC2)cc1
    i, 0.91, 106, 0, 117, ., -1
> Cc1nnc(SCc2cc(=O)[nH]c(N3CCCCC3)n2)s1
    i, 0.88, ., 8, 126, -0.7, 4
> COCCSc1ccccc1C(=O)N1CCCC(C)C1 (centres undefined)
    i, 0.9, 102, ., ., ., -5
> N#Cc1ccccc1CSc1nc2ncc(Br)cc2[nH]1
    i, 0.79, 99, -9, 124, 0.6, 7
> Cc1cccc(N/C(N)=N/c2nc3c(c(=O)[nH]2)CCCC3)c1
    i, 0.64, 107, 38, 22, -0.9, -12
> CNc1cc(C)nc(N2CCOCC2)n1
    i, 1.1, 99, ., ., ., .
> O=C(NCCc1ccc(Cl)cc1)C1CCC(CNc2nc(=S)[nH]c3ccccc23)CC1 (centres undefined)
    i, 0.8, 100, 21, 147, ., -1
> COc1cc(/C=C/C(=O)OCC(=O)N2CCOCC2)ccc1OCC#N
    i, 0.95, 94, ., ., ., 0
> CC1=C(C)CC(C(=O)Nc2nc(-c3ccc(F)cc3)c(C)s2)C(C(=O)O)C1 (centres undefined)
    i, 1, 36, 0, 63, -0.8, -2
> Cc1ccc(-c2noc(COc3ccc4c(c3)OCO4)n2)cc1
    i, 0.94, 98, 0, 104, -2.6, -5
> CN(C)C1=C(Cl)C(=O)N(c2ccc(Cl)c(Cl)c2)C1=O
    i, 1.1, 104, ., ., ., .
> CCn1c2ccccc2c2cc(NC(=O)c3ccc([N+](=O)[O-])cc3)ccc21
    i, 0.8, 125, -25, 104, -3.0, 3
> N#Cc1c(-c2ccco2)ccn(Cc2cccc(F)c2)c1=O
    i, 1, 102, -11, 107, ., -6
> O=C(CSc1ccc(-c2cccs2)nn1)Nc1ccccc1
    i, 0.94, 108, -25, 121, ., 1
> Cc1cc(C(=O)C(=O)O)c(C)n1-c1ccc(Cl)c(Cl)c1
    i, 1.1, 104, 5, 110, ., -11
> Cc1cc(C(F)(F)F)nn1CC(=O)N1CCOCC1
    i, 0.78, 111, 43, 99, -3.0, -5
> CCOC(=O)C1(S(=O)(=O)c2ccc(Cl)cc2)CCN(Cc2ccc(Cl)cc2)CC1
    i, 1.1, 100, -29, 138, 0.1, 2
> Cn1c(N2CCN(C(=O)NCc3ccccc3)CC2)nc2ccccc21
    i, 1.1, 105, ., ., -0.5, -6
> C/C(=N\NC(=O)c1cccc(N/N=C(\C)c2cc(O)ccc2O)c1)c1cc(O)ccc1O
    i, 1.1, 96, ., ., ., -3
> CCOC(=O)NN1C(=O)c2ccccc2NC12CCCC2
    i, 1.1, 91, 0, 97, ., 6
> O=C(NS(=O)(=O)c1ccccc1Cl)c1ccc[nH]1
    i, 0.9, 108, 31, 138, -0.5, 3
> Cc1nc2c(ccc3nc(NC(=O)Cc4ccccc4)sc32)s1
    ., ., 97, 41, 113, 0.2, 5
> COc1ccc(OCC(=O)N2N=C(C(F)F)CC2(O)C(F)F)cc1 (centres undefined)
    i, 0.92, 102, 2, 97, -0.8, 0
> S=c1[nH]nc(-c2ccn[nH]2)n1-c1ccccc1Cl
    i, 0.85, 103, ., ., ., .
> COc1ccccc1C(=O)Nc1ccc(OCc2nnc3c4ccccc4c(C)nn23)cc1
    i, 0.87, 100, 17, 119, 1.3, 0
> Cc1cccc(C(=O)NCCNc2nc3cc(C)c(C)cc3cc2C)c1
    i, 0.79, 102, ., ., ., -7
> COc1ccc(-n2c(SCC(=O)Nc3ccc(C(=O)O)cc3)nnc2-c2cccs2)cc1
    i, 1, 79, 5, 88, 1.3, 1
> CCC(C)(C(=O)NC1CCCC1)N(C(=O)c1ccccn1)c1ccc(C)cc1 (centres undefined)
    i, 1.1, 110, ., ., -4.0, -7
> COc1ccc(OC)c(S(=O)(=O)n2nnc3cc(Cl)ccc32)c1
    i, 1.1, 100, ., ., -0.9, -3
> Cc1c(C#N)c2ccccc2n1CC(=O)NCc1ccccc1
    i, 0.94, 77, -62, 95, 0.1, 0
> O=C(CC1NC2CCCCC2NC1=O)Nc1cccc(C(F)(F)F)c1 (centres undefined)
    i, 0.95, 104, 29, 71, 0.6, -2
> O=C1c2ccccc2C(=O)c2cc(NC(=O)C3CC3)ccc21
    i, 0.82, 90, -7, 86, 4.5, -10
> Cc1c(NC(=O)c2cc(-c3ccccc3)on2)c(=O)n(-c2ccccc2)n1C
    i, 0.67, 104, -7, 170, -2.0, -13
> Cc1c(-c2ccc(F)cc2)nc(N)c(C#N)c1-c1ccco1
    i, 0.99, 101, -36, 76, 0.2, -3
> Cc1ccc(S(=O)(=O)NC(C(=O)OCC(=O)NC2CCS(=O)(=O)C2)C(C)C)cc1 (centres undefined)
    i, 0.99, 98, 25, 88, -1.0, 1
> CCCCNC(=O)NNC(=O)c1ccc(F)cc1
    ., ., 115, -8, 105, -0.9, -8
> COc1ccc(C2N(c3ccc(C)cc3)CCN2c2ccc(C)cc2)cc1O
    i, 1, 103, 33, 72, ., 5
> O=C(OC(c1ccccc1)c1nccc2ccccc12)c1cc([N+](=O)[O-])cc([N+](=O)[O-])c1 (centres undefined)
    i, 1, 98, ., ., -0.6, -4
> CCOC(=O)C1CCN(C(=O)c2oc3ccc(S(=O)(=O)N4CCCCCC4)cc3c2C)CC1
    i, 0.94, 102, 3, 118, 0.2, -12
> CC(C)c1nc(=S)c2ccccc2[nH]1
    i, 0.89, 83, 69, 162, -1.1, -3
> CC(C)Oc1ccc(Cc2cnc(N)nc2N)cc1
    i, 0.91, i, 19, 123, 0.2, 2
> O=C(CCCN1C(=O)CSc2ncccc21)N1CCN(Cc2ccccc2)CC1
    i, 0.91, 101, ., ., -1.5, -2
> CCOc1ccc(C2CC(c3ccc(OC)c(OC)c3)n3nc(N)nc3N2)cc1 (centres undefined)
    i, 0.75, 111, -20, 117, -0.8, -13
> CN1CCN(c2nc(-c3ccco3)cc(C(F)(F)F)n2)CC1
    i, 0.9, 102, -262, 105, -0.7, -4
> CN1CCC(CO)(Cc2ccccc2)CC1
    i, 1, 101, ., ., ., 4
> COc1ccc(N=Cc2nc(-c3ccco3)oc2O)cc1
    i, 0.85, 103, -33, 82, -0.7, 4
> NC(=O)C1CCN(C(=O)/C=C/c2ccco2)CC1
    i, 0.92, 93, 0, 129, -1.2, 9
> Cc1c(Cl)cccc1NC(=S)NCCc1ccc(C(F)(F)F)cc1
    i, 0.95, 99, ., ., ., 2
> Cc1cccc(N2CCN(C(=O)c3ccc4ncsc4c3)CC2)c1C
    ., ., 102, 5, 47, -0.1, -3
> CC(/C=N/NC(=O)Cc1cccn1C)=C\c1ccccc1
    i, 0.96, 57, 75*, 93*, -2.3, 11

# Next part:
# Values run as follows: HSV replic up, HSV replic up primary fold, RGS16-Gao HTS, Insulin prom inh, Insulin prom inh cell count, GALR2 ag, PKD1 inh
> CCCC[n+]1c(C)sc2ccc(C)cc21
    i, 1.1, 105, ., ., ., 6
> O=C(COc1ccc(S(=O)(=O)NCc2ccccc2)cc1)N1CCOCC1
    i, 0.76, 105, 0, 66, -1.2, -10
> O=C(CSc1nc2ccccc2o1)N1CCN(c2ccccc2)CC1
    i, 0.95, 81, -42, 78, -2.9, -4
> CCc1cc2c(=O)c(Oc3ccccc3)c(C)oc2cc1O
    i, 1.1, 103, 3, 110, -1.0, 2
> COc1cccc(-c2nnc(SCC(=O)Nc3ccc(OC)c(OC)c3)n2N)c1
    i, 1, 97, ., ., -2.0, 0
> CCNS(=O)(=O)c1ccc(NC(=O)c2ccc(Cn3cc(Br)cn3)o2)cc1
    i, 0.93, 102, -21, 127, -0.9, 4
> Cc1[nH]c(=O)[nH]c(=O)c1S(=O)(=O)N1CCN(c2ccccc2F)CC1
    i, 0.98, 104, -25, 42, -1.5, -6
> COC(=O)c1ccccc1NC(=O)c1ccc2c(c1)C(=O)N(Cc1ccco1)C2=O
    i, 0.87, ., -138, 110, -1.0, -5
> CCSC1=C(C#N)C2(CCCC2)C(C#N)=C(N)N1
    i, 0.81, 97, 36, 71, -0.1, -13
> O=S(=O)(c1ccccc1)N1CCN(c2cc(-c3ccccc3)nc3ncnn23)CC1
    i, 0.7, 94, 35, 106, -1.1, -14
> CC1CCN(C(=O)CSc2nnc(CN3CCOCC3)n2-c2ccccc2)CC1
    i, 0.85, 104, -25, 74, -2.2, -6
> O=C(NC1CCCCC1)N1CCC(c2nc(-c3ccc(S(=O)(=O)N4CCCC4)cc3)no2)CC1
    i, 0.81, 106, ., ., -1.1, 5
> Cc1ccc2cc(CCNC(=O)C(C)(C)C)c(=O)[nH]c2c1
    i, 1, 101, ., ., -1.9, -3
> CCO[C@@H]1OC(C(=O)N2CCN(C)CC2)=C[C@H](c2ccc(C(F)(F)F)cc2)[C@H]1CCCO
    i, 1.1, 100, ., ., ., 6
> COc1ccc(NC(=S)Nc2cccc(Cl)c2Cl)cc1OC
    i, 0.83, 104, ., ., ., -5
> Cc1cc(NC(=O)Cn2c(=O)n(CCCCC(=O)NC3CCN(Cc4ccccc4)CC3)c(=O)c3ccccc32)n[nH]1
    i, 0.84, 100, 7, 136, ., -8
> Cc1ccc2c(c1)N(CCCC(=O)NCc1cccnc1)C(=O)CO2
    ., ., 89, 15, 105, 0.8, -9
> CC(C)Cn1c(=O)c(C(=O)N/N=C/c2cccc(F)c2)c(O)c2ccccc21
    i, 0.93, 115, 43, 69, -1.3, 1
> COc1ccc(N2CCN(Cc3nc4ccccc4n3C)CC2)cc1
    i, 0.84, 106, 24, 101, 0.3, 0
> Cn1cccc1C(=O)Nc1nccs1
    i, 0.97, 91, ., ., -2.2, 3
> CCOc1ccc(NC(=O)c2cnsn2)cc1
    i, 0.79, 97, 8, 246, 0.1, -7
> O=C(NCCOc1ccc(Cl)cc1)C1CC(=O)N(c2ccc(F)cc2)C1 (centres undefined)
    i, 0.92, 91, ., ., -1.0, -11
> COc1cccc(/C=C2\SC(=N)N(c3ccc(F)cc3)C2=O)c1
    i, 0.86, 94, 43, 71, ., -1
> CC(/C=N/N1C(=O)CSC1=S)=C\c1ccccc1
    i, 0.98, 101, -57, 51, ., 5
> CCOC(=O)c1cn(CC)c2ccc(Br)cc2c1=O
    i, 0.9, 101, ., ., 0.8, -2
> Cn1c(CN2CCCC2)nc2cc(NC(=O)c3cccs3)ccc21
    i, 1, 28, 0, 99, -2.2, -3
> Cc1ccc(CC(=O)Nc2nc3ccccc3[nH]2)cc1C
    i, 0.92, 99, 23, 83, 0.2, -10

# Screens as filed in PubChem.
